High-throughput results (PubChem BioAssay)
Six1-Eya2 blk = blocks human Six1 binding to Eya2; Q15475+O00167; AlphaScreen GST-Six1/His-Eya2 binding, biochemical; hits give low values; control for the full effect not named in the record; actives 0.56% (n = 360,000); activity change, % (concentration not given with the values); in the data active = activity change below about -65%; inconclusive = about -30% to -65%; inactive = above about -30%; further: on the % scale 0 is the no-effect control and ±100 the full control effect
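Homogeneous AlphaScreen proximity assay pairing GST-Six1 with His-tagged Eya2 (added as 5X mix: 250 nM and 500 nM) in 50 mM Tris pH 8.0, 300 mM NaCl, 1 mM TCEP. Glutathione donor and nickel acceptor beads; 1 h, 37 °C, dark.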
CtBP-E1A blk = inhibitors of CtBP/E1A interaction | actives 0.49% (n = 340,000) | AlphaScreen GST-E1A/His-CtBP binding, 1536-well; hits give low values; control for the full effect not named in the record | activity change, % (concentration not given with the values); in the data active means activity change below about -65%; inconclusive means about -30% to -65%; inactive means above about -30%; further: on the % scale 0 is the no-effect control and ±100 the full control effect
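In 5 uL wells, 23 nL compound meets equimolar GST-E1A and His-CtBP (5X stock 125 nM each) for 2 h, 37 °C. Beads (5X, 50 ug/mL) then 1 h, 37 °C, dark.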
TRPML1 agonist = activates the human TRPML1 channel. Q9GZU1. TRPML1-expressing cells, Ca2+ dye fluorescence, FDSS; host cell line not named in the record; reference of the full effect not given here. activation, % (concentration not given with the values). actives 0.12% (n = 410,000). AID 624414; in the data active = activation above about 50%; inconclusive = about 30% to 50%; inactive = below about 30%; further: 0% is about no effect; the text of the record puts the active cut at 80%
Target sequence (Q9GZU1 whole entry, looked up): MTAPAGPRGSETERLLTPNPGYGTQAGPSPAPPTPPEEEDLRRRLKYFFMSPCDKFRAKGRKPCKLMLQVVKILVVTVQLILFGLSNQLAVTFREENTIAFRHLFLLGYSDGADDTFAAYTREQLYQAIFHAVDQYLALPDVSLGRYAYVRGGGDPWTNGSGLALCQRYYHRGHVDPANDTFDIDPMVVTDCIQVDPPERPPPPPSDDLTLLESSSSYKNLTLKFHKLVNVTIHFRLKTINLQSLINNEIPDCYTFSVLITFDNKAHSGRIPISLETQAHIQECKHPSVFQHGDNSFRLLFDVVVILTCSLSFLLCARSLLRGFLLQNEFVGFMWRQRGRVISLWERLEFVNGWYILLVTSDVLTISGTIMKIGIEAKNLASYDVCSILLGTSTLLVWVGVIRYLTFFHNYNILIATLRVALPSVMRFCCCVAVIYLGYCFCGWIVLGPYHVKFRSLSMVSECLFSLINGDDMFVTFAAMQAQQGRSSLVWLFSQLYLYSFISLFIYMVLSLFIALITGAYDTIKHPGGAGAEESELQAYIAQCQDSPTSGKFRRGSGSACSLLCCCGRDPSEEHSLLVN
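Calcium fluorescence on an FDSS kinetic reader gave the read-out. Tet-induced TRPML1-DL cells were plated overnight, dye-loaded (Ca8 with quencher, 45-90 min, room temperature, dark), then read 110 s after compound addition, and again 110 s after 4uM final 54-4 (EC80).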
D2 ag = agonists of human D2 dopamine receptor (beta-arrestin) | P14416 | DiscoveRx PathHunter D2 beta-arrestin, luminescence, 90 min; 100% = 57 uM dopamine signal | activation, % (concentration not given with the values) | actives 0.084% (n = 360,000); in the data active = activation above about 40%; inconclusive = about 15% to 40%; inactive = below about 15%; further: compound concentration not given in the record; the text of the record calls up to 30% inactive
Target sequence (P14416 whole entry, looked up): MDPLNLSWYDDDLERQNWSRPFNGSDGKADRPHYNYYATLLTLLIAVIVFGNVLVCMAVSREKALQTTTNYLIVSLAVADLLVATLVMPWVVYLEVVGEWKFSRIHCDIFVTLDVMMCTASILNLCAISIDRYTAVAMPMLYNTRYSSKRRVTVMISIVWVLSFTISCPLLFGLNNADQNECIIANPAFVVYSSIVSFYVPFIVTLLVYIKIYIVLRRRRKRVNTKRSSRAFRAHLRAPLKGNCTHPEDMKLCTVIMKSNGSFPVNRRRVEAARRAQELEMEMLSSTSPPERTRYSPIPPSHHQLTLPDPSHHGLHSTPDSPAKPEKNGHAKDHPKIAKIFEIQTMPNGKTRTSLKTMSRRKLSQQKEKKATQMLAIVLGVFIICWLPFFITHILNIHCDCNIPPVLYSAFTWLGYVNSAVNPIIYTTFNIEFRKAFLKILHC
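Agonist mode: compounds alone added to overnight-plated D2 PathHunter cells for 90 min at 37 C, with 57 uM final dopamine (EC100) defining full response. Beta-arrestin recruitment detected by chemiluminescent reagent, read after 1 h at ambient temperature.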
PINK1 modulator = modulators of PINK1 expression; PINK1 immunofluorescence, high-content cytometry, 24 h; Potency, µM (titrated, usually from 76.6 µM), for inactives: at the highest dose activation (PINK1 increase), usual class: activators; actives 0.2% (n = 410,000); active = well fitted activation curve with a large enough effect; inconclusive = small, poorly fitted or top-dose-only effect; inactive = flat fitted curve, though single readings scatter; cell line not stated here;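 further: potency means the concentration at half of the fitted maximal effect; % of control where 0% means no effect; nearly all actives have a fitted effect of over 65% in size; a mitochondrial uncoupler was the plate control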
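PINK1 protein, normally rapidly degraded, was detected by immunofluorescence after 24 hour compound treatment of a stable cell line. Titration data (5 concentrations) came from laser-scanning cytometry, with CCCP-treated wells as controls.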
TRPML1 inh = blocks the human TRPML1 channel; activity change, negative = inhibition, % (test concentration not listed); Q9GZU1; actives 0.02% (n = 390,000); TRPML1-inducible cells, Ca2+ dye fluorescence, FDSS; hits give low values; inhibition of EC80 agonist-evoked calcium signal; in the data active means activity change below about -50%; inconclusive means about -30% to -50%; inactive means above about -30%;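 further: stimulus is agonist 54-4 at its EC80 concentration; on the % scale 0 is the no-effect control and ±100 the full control effect; compound concentration not given in the record; the text of the record puts the active cut at -80%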
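Calcium fluorescence in TRPML1-DL cells induced overnight with Tet: a 110 s read after compound pin addition, then a 110 s antagonist read after challenge with 54-4 at 4 uM final (EC80).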
* = called active by the depositor; ? = inconclusive; nt = not tested or not shown; & = joins results of further samples; [ ] = another dose, or the depositor's remark.

#	SMILES	Six1-Eya2 blk	CtBP-E1A blk	TRPML1 agonist	D2 ag	PINK1 modulator	TRPML1 inh
1	COc1ccc(OC)c(/C=C/C(=O)OCC(=O)Nc2cccc(C(C)=O)c2)c1	-3.3	-14.6	1.7	-1.6	-1.7%	-12.3
2	O=c1oc(-c2ccco2)nc2c1cnn2-c1ccccc1	-3.9	7.5	1.3	-3.0	8.7%	7.9
3	COc1ccc2c(c1)CCC1C2=NN(/C(C)=C\C(C)=O)C1c1ccc(F)cc1 (stereo not given)	-1.9	nt	-0.3	?	0.7%	11.5
4	Cc1cc(C)n(C(=O)CCNC(=O)c2ccccc2Br)n1	10.4	3.5	0.0	1.2	-0.5%	-1.2
5	COC(=O)c1sc2cc(=O)n(-c3cccc(C(F)(F)F)c3)nc2c1O	-1.0	-0.3	-0.9	-1.9	1.1%	-3.0
6	C/C(=N\NC(=O)OC(C)(C)C)c1ccc(-n2ccnc2)cc1	1.7	4.1	-0.7	1.5	-0.7%	-6.9
7	CCOC(=O)C1=C(COC(=O)/C=C/c2ccc(OCC)c(OC)c2)NC(=O)NC1C (stereo not given)	-3.5	-2.7	2.2	1.1	0.1%	-15.9
8	O=[N+]([O-])c1ccc(N2CCC(=NOCc3ccc(Cl)cc3)CC2)cc1	-12.7	-7.4	-0.4	1.4	35.4%[38.3 µM]	26.2
9	CCc1cccc(C)c1NC(=O)c1ccoc1C	4.5	-7.7	1.8	-0.6	-1.4%	-4.2
10	COCCn1c(=O)c2cc3c(=O)n(CCOC)c(=O)c3cc2c1=O	-3.6	8.1	0.1	1.3	7.1%[38.3 µM]	11.6
11	Cn1cc(CN2CCN(Cc3ccccc3)C(CCO)C2)c(-c2ccccc2)n1 (stereo not given)	3.6	2.5	-0.9	-1.6	1.5%	7.1
12	CCCCOC(=O)c1sc2nc(N3CCOCC3)c3c(c2c1N)CC(C)(C)OC3	16.6	2.5	0.7	0.0	1.5%	6.9
13	COc1ccc(C(=O)NCc2nnc(SCC(=O)N3CCCCC3)o2)cc1OC	-3.7	-4.8	-0.5	-2.0	-2.1%	31.9
14	O=C(CCNC(=O)c1ccccc1)NCCCc1ccccc1	2.3	nt	-0.2	-4.6	0.6%	-3.8
15	COc1ccccc1CNC(=O)c1ccc2c(c1)nnn2C1CCCC1	nt	nt	-0.6	nt	-0.9%	-9.3
16	CC12CCC(=O)N1C(C(=O)N1CCN(c3ccc([N+](=O)[O-])cc3)CC1)CS2 (stereo not given)	-2.0	-2.5	0.2	0.1	-4.7%	1.8
17	OC[C@@H]1CN(Cc2ccccc2)C[C@H](n2cnc3c(N4CCOCC4)ncnc32)O1	1.3	1.7	0.1	-5.6	0.8%	-6.7
18	O=C(Nc1cc(C(F)(F)F)ccc1N1CCOCC1)c1cn2ccccc2n1	-1.2	0.4	-0.4	-1.5	7.1%	-7.3
19	O=C(c1ccccc1)N1CCCCC(Sc2nnc3ccccn23)C1=O (stereo not given)	3.1	5.7	-0.2	-3.5	-1.9%[38.3 µM]	-19.7
20	O=C(CN1CCOCC1)Nc1ccccc1Sc1ccc(Cl)cc1	10.9	-0.5	2.9	1.4	0.4%	9.9

An excerpt from above in order of number of heavy atoms, high to low.
#	SMILES	Six1-Eya2 blk	CtBP-E1A blk	TRPML1 agonist	D2 ag	PINK1 modulator	TRPML1 inh
17	OC[C@@H]1CN(Cc2ccccc2)C[C@H](n2cnc3c(N4CCOCC4)ncnc32)O1	1.3	1.7	0.1	-5.6	0.8%	-6.7
11	Cn1cc(CN2CCN(Cc3ccccc3)C(CCO)C2)c(-c2ccccc2)n1 (stereo not given)	3.6	2.5	-0.9	-1.6	1.5%	7.1
20	O=C(CN1CCOCC1)Nc1ccccc1Sc1ccc(Cl)cc1	10.9	-0.5	2.9	1.4	0.4%	9.9

The listing continues.
#	SMILES	Six1-Eya2 blk	CtBP-E1A blk	TRPML1 agonist	D2 ag	PINK1 modulator	TRPML1 inh
21	Cc1ccc(NC(=O)Cn2nc3c(cc2=O)CCCC3)cc1Cl	nt	nt	-0.7	nt	0.3%	4.5
22	COc1ccc(N2CCN(c3ncnc4scc(-c5ccccc5)c34)CC2)cc1	?	?	2.0	4.6	2.6%	-20.8
23	CCc1ccc(OCc2nc(-c3ccc(OC)cc3)no2)c(Br)c1	nt	nt	6.0	nt	2.2%	-13.8
24	Cc1nn(-c2cc(N3CCCC3)ccc2[N+](=O)[O-])c(=O)c2ccccc12	6.5	1.4	-0.4	-4.0	5.3%	5.0
25	O=C1NCCCN1Cc1ccc(F)cc1Cl	2.3	11.5	-0.1	1.8	0.2%[38.3 µM]	1.4
26	CC(C)(C)NC(=O)C1Cc2ccccc2CN1S(=O)(=O)c1ccc(F)cc1 (stereo not given)	11.0	5.9	-0.2	-4.7	-0.7%	14.9
27	Cc1ccc(-c2onc(C)c2C)cc1S(=O)(=O)NCc1cccs1	nt	nt	4.2	nt	2.0%	7.6
28	Cc1cccc(C(=O)OCC(=O)Nc2ccc3c(c2)OCCO3)c1	0.8	nt	-0.7	4.1	0.5%	-1.0
29	COc1ccc(-c2onc(C)c2C)cc1S(=O)(=O)NCCc1ccccc1	nt	nt	-0.6	nt	2.8%	-5.8
30	O=[n+]1c2c(n([O-])c3cc(Br)ccc31)CCCC2	-0.3	-1.4	0.2	2.5	1.1%	5.1
31	NC(=O)CSc1oc(-c2ccco2)nc1S(=O)(=O)c1ccc(Br)cc1	3.5	-1.5	-1.2&-0.7	-5.6	0.3%&2.8%	10.0&8.1
32	CC(C)(C)NC(=O)CCN1CCOCC1	10.2	-0.8	-0.6	-1.3	-0.5%	-2.1
33	COc1ccccc1C(=O)NNC(=O)c1ccc(F)cc1	5.5	-3.5	0.2	-1.9	3.6%	-12.8
34	C=CCn1c(SCC(=O)Nc2sc3c(c2C#N)CCC3)nnc1C1COc2ccccc2O1 (stereo not given)	-13.2	-12.1	0.4	-4.8	3.6%	-10.3
35	O=C(NCC(c1cccs1)N1CCOCC1)c1ccc(OCc2ccccc2)cc1 (stereo not given)	-5.4	-26.6	1.5	-0.7	-2.1%	-3.6
36	O=C(CSc1nnc(CNC(=O)c2cccs2)o1)Nc1ccc(Br)cc1	-1.5	-5.2	-0.5	-1.4	-0.7%	19.5
37	CCc1cc(C(=O)Nc2ncccc2O)sc1C	-2.5	-6.3	-0.7	-4.4	6.6%	3.1
38	COc1ccc(NC(=O)Cn2cc(C(=O)C3CCCCC3)c3ccccc32)cc1	nt	nt	0.5	nt	0.2%	4.9
39	COC(=O)CSc1nc2ccccc2c(=O)n1C	4.2	-8.8	0.2	-0.3	2.1%	-5.3
40	CC(=C\c1ccccc1)/C=C1/SC(=S)N(C(C(=O)O)C(C)C)C1=O (stereo not given)	0.8	0.0	0.1	-4.7	-1.9%	-2.2
41	COc1ccc(/C=C/C(=O)N(C)c2ccccc2C(=O)O)cc1	7.5	-1.4	-0.2	-0.8	0.2%	58.0
42	Cc1ccccc1C(=O)OC(C)CN1CCN(C)CC1 (stereo not given)	2.4	-0.8	0.0	-4.3	1.2%	21.2
43	COc1ccc(S(=O)(=O)N2CCOC2CNC(=O)C(=O)NCc2ccc(F)cc2)cc1OC (stereo not given)	21.0	0.0	1.2	-4.1	-1.2%	1.0
44	COc1ccc2c(c1)c1c(c(=O)n(-c3ccccc3C)c(=O)n1Cc1ccccc1C)n2C	nt	nt	0.2	nt	1.2%	-2.2
45	CCOC(=O)C1=C(C)NC(C)=C(C(=O)OCC)C1C(=O)OCC(=O)c1ccc2c(c1)OCCO2	-0.3	3.2	-0.7	0.5	4.3%	38.4
46	O=c1[nH]c2cc(Br)cnc2nc1/C=C(\O)c1ccc(F)cc1	-0.9	9.3	3.6	1.0	nt	-4.8
47	COc1cccc(C(NC(C)=O)c2nc(-c3cccc(F)c3)cs2)c1 (stereo not given)	5.2	-23.2	1.3	-5.0	1.6%	nt
48	COc1ccc(CNCc2cccc(C)c2)cc1	0.8	7.6	-0.6	-3.8	1.6%	-6.2
49	Cc1c(C)n(C)c2ccc(C(=O)NCCCN3CCN(c4ccccc4F)CC3)cc12	?	?	0.0	8.9	-0.3%	41.3
50	O=C1CCC/C=C\C[C@@H](CC(=O)N(CCO)Cc2ccccc2)C(=O)NCCO1	1.8	-16.6	-0.4	-0.4	2.0%	2.4
51	NC(=O)c1c(NC(=O)c2cccnc2Cl)sc2c1CCCC2	3.2	-5.9	1.1	-0.6	-1.0%	0.7
52	COC(=O)c1cccc2c1-c1ccccc1/C2=N/O	-18.4	-23.0	4.6	-2.2	-4.4%	-3.4
53	Cc1cccc(C)c1NS(=O)(=O)c1c(C)[nH]c(=O)[nH]c1=O	-1.6	-2.0	-0.6	-3.3	-1.7%	-8.6
54	O=C(Nc1cccc2ncccc12)c1cc(Br)ccc1Cl	0.6	-5.0	0.9	1.3	0.3%	-9.8
55	Cc1ccc(S(=O)(=O)CCC(=O)NCCc2ccc(Cl)cc2)cc1	4.6	-15.4	1.0	-0.6	-0.7%	-8.9
56	Cc1cc2ccccc2cc1C(=O)c1ccccc1	0.2	27.4	2.8	-1.5	14.2%	28.2
57	COc1ccc(-c2nc3scc(CCNS(=O)(=O)c4ccc(F)cc4C)n3n2)cc1	nt	nt	1.1	nt	0.9%	-17.4
58	COc1ccc(-c2oc(=O)c3cc(OC)c(OC)cc3c2C#CCCO)cc1	-6.1	-0.2	1.0	5.8	1.1%	2.5
59	Cc1ccc2nc3c(c(N)c2c1)CCN3C	-15.8	-13.4	1.5	-5.4	1.4%	-0.8
60	CCOc1nc(C)ccc1-c1noc(-c2ccco2)n1	9.3	11.3	2.1	-1.5	6.3%[38.3 µM]	-8.8
61	O=C1c2[nH]nc(-c3ccccc3O)c2C(c2ccc(F)cc2)N1CCO (stereo not given)	nt	nt	-0.7	nt	1.5%	-5.8
62	CCCCN1C(=O)CC(Sc2ncccc2C(=O)O)C1=O (stereo not given)	3.1	0.0	0.3	-2.4	-0.8%	1.5
63	Cc1cccc(Nc2ncnc(N)c2[N+](=O)[O-])n1	-11.4	-25.3	0.8	-4.0	-1.5%	-8.2
64	O=C(COc1cc(F)ccc1[N+](=O)[O-])NCC1CCCO1 (stereo not given)	-0.7	6.9	1.2	1.8	2.1%	11.3
65	Cc1n[nH]c(=O)nc1N/N=C/c1ccco1	-68.0*	?	0.1	-0.3	0.7%	-24.0
